H5N1 antiviral: MDCK cell protection from H5N1 avian flu. inhibition, % at 50 µM. 96,000 tested, 0.07% active. cytopathic effect, luminescence, 72 h; stronger effect = higher value; no value below 0 was filed and about half of the inactive calls have no number; reference of the scale not given here; in the data active = inhibition above about 25%
Starred values were filed as active, the others as inactive; i = inactive; & = joins results of further samples. These rows are one share of the data. The share of hits here may be higher or lower than overall.

SMILES | H5N1 antiviral
COc1ccc(-c2nc(C#N)c(NCCc3ccccc3)o2)cc1OC | i
COc1cc(C(C(=O)NC(C)(C)C)N(C(=O)CNC(=O)c2cccs2)c2ccc(C(C)C)cc2)cc(OC)c1OC (configuration not stated) | i
C=CCN(C(=O)CNS(=O)(=O)c1ccccc1)C(C(=O)NCCOC)c1ccncc1 (configuration not stated) | i
O=C(NCC(=O)N(c1ccccc1)C(C(=O)NC1CCCC1)c1cccnc1)c1cccs1 (configuration not stated) | 3.6
Cn1cc(Cl)c(C(=O)Nc2nc3ccccc3s2)n1 | i
O=C(COc1ccccc1Cl)Nc1ccc2c(c1)OCCO2 | 0.3
COc1ccc(-c2cc(C(F)(F)F)nc(SCC(=O)Nc3sc4c(c3C#N)CCC4)n2)cc1 | i
Cc1cccc(C2CC(c3ccccc3)Nc3nc(N)nn32)c1 (configuration not stated) | i
CC(C)=CC(=O)Nc1ccc(Br)cc1 | i
O=C(Nc1ccccc1)Nc1ccccc1C(=O)NCc1ccco1 | 0.6
Clc1cccc(/C=N/Nc2nc(Cl)nc3ccccc23)c1 | i
CCOC(=O)CSc1nc2sc3c(c2c(=O)[nH]1)CC(C)(CC)OC3 (configuration not stated) | 0.9
CCCOc1ccc(/C(O)=C2/C(=O)C(=O)N(CCN(C)C)C2c2ccc(O)c(OC)c2)cc1 (configuration not stated) | 0.3
Cc1nnc(NCc2ccco2)c2ccccc12 | 13
CC(C(=O)NC1CCCC1)N(C(=O)c1ccc(-c2ccccc2)[nH]1)c1ccccc1F (configuration not stated) | 2.6
O=[n+]1c2c(n([O-])c3cc(Br)ccc31)CCC2 | 0.4
CC(C)(C)c1nc(S(=O)(=O)c2ccc(Cl)cc2)c(N2CCOCC2)o1 | 0.7
COc1cccc(-c2nnc(SCc3nc4ccccc4[nH]3)n2N)c1 | 0.2
CSc1nc(=NC(C)=O)ss1 | 0.7
COC(=O)c1cn(-c2ccccc2)nc1-c1cccnc1 | i
COCCCNC(=O)c1ccc(Cn2c(=O)c3ccccc3n(Cc3ccccc3C)c2=O)cc1 | 0.3
COc1ccc(-c2oc3ncnc(N)c3c2-c2ccccc2)cc1 | 0.5
CCOC(=O)C(NC(=O)OC(C)C)(Nc1nccs1)C(F)(F)F (configuration not stated) | 0.6
CCOC(=O)CSC1=Nc2ccccc2C2=NC(CC(=O)NCc3ccc(OC)cc3)C(=O)N12 (configuration not stated) | 0.6
C=CCn1c(O)c(C(C)=NCCN2CCCCC2)c(=O)[nH]c1=O | 1.3
C=CCSc1nnc2c(n1)OC(c1cccnc1)N(C(C)=O)c1ccccc1-2 (configuration not stated) | 1.3
O=C(CSc1ncn[nH]1)NCc1ccccc1 | 0.7
Cc1cc(C)c(S(=O)(=O)c2ccccc2)c(Cl)n1 | 1.2
Cc1ccc(S(=O)(=O)N(C)CC(=O)N2CCOCC2)cc1 | 0.2
Cc1cc(C)nc(NCC(O)CNc2ccccc2C)n1 (configuration not stated) | i
Nc1nnc(CC(=O)N/N=C/c2cccc([N+](=O)[O-])c2)s1 | 0.8
CCn1c(CNC(=O)c2ccc(OC)c(OC)c2)nnc1SCC(=O)c1ccc(OC)cc1 | i
O=C(Cn1ccc([N+](=O)[O-])n1)N1CCCc2ccccc21 | 0.4
Cc1sc(-n2c(C)ccc2C)c(C#N)c1C | i
O=C(COC(=O)Cn1cnc2ccccc21)Nc1ccc2c(c1)OCCO2 | i
O=C(CSc1nc(-c2ccccc2)c(-c2ccccc2)[nH]1)NCc1ccco1 | 1.6
CCOC(=O)c1coc(CNC(=O)c2c(C)oc3c2CCCC3)c1 | i
CS(=O)(=O)N(Cc1ccccc1)c1ccc(C(=O)N2CCN(c3cccc(Cl)c3)CC2)cc1 | 0.1
Cc1ccc(-c2onc3ccc(C4(C)OCCO4)cc23)cc1 | 0.9
Brc1ccc(NCc2cccc3ccccc23)nc1 | 0.3
O=C(c1ccco1)N1CCN(CC(O)COc2ccc3oc4ccccc4c3c2)CC1 (configuration not stated) | i
COCCNC(=O)c1ccccc1NS(=O)(=O)c1ccc(Br)s1 | 1.1
O=C(c1cc2c(s1)CCC2)N1C(=O)c2ccccc2S1(=O)=O | i
COc1ccc(CCNC(=O)CNS(=O)(=O)c2ccc(Br)s2)cc1OC | i
O=C(O)CCNc1nc(-c2ccccc2)nc2ccccc12 | 0.3
O=c1[nH]c2sc3c(c2c(=O)n1Cc1ccccc1)CCC3 | i
Cc1ccc(C(C(=O)NC2CCCCC2)N2CCC3(CC2)OCCO3)cc1 (configuration not stated) | 0.1
CC(SC1=NCCS1)C(=O)Nc1nnc(-c2ccc(Cl)cc2)s1 (configuration not stated) | i
O=C(c1ccc(Cl)cc1)c1cnc2ccccn12 | 2.9
O=C(C1CC1)N1CCN=C1SCc1ccc(Cl)cc1 | 1.3
Other compounds:
SMILES | H5N1 antiviral
Cc1ccccc1NC(=O)N(C(C)C)C(C)C | 1.5
Cc1ccc(S(=O)(=O)N2CCC(C(=O)NCC3CCCO3)CC2)cc1 (configuration not stated) | 0.3
COc1ccccc1NC(=S)N1CCN(C(=O)c2ccco2)CC1 | i
CCOC(=O)C1CCCN(C(=O)c2cncc(Br)c2)C1 (configuration not stated) | i
CCOC(=O)CCCNC(=O)CN1C(=O)NC2(CCCCCC2)C1=O | 0.7
O=C(NCc1ccccn1)C1CCCN(S(=O)(=O)c2ccccc2)C1 (configuration not stated) | i
COc1ccc(/C=C2\SC(=S)N(NC(=O)c3csc4c3CCCC4)C2=O)cc1 | i
CCCC(=O)NC(Oc1ccccc1Cl)C(Cl)(Cl)Cl (configuration not stated) | i
Cc1cc(C)nc(/N=C2\NC(=O)CC3C(=O)NCCN23)n1 (configuration not stated) | i
COc1cc(C2C3CN(C)CC=C3C(C#N)=C(N)C2(C#N)C#N)ccc1OC(C)C (configuration not stated) | 0.4
COc1ccc(C)cc1NC(=O)NCCC1=CCCCC1 | i
CCCCN(CCCC)CCNC(=O)CNC(=O)c1cccs1 | i
CC1CN(c2ccc([N+](=O)[O-])c3cccnc23)CC(C)N1 (configuration not stated) | 0.9
CC1=C(C#N)C(c2ccc3ncccc3c2)C(C#N)=C(C)N1 | 1.4
Cc1ccc(-n2c(O)c(/C=N/n3cnnc3)c3ccccc3c2=O)cc1 | 0.6
CCOC(=O)C1=C(N)n2c(s/c(=C\c3cccs3)c2=O)=C(C(=O)OCC)C1c1cccs1 (configuration not stated) | i
C1CCc2nnc(-c3nnc4n3CCCCC4)n2CC1 | i
Cc1[nH]c2ccccc2c1-c1nc2ccccc2[nH]1 | 0.5
CC(=O)c1ccc(NC(=O)Cn2nc(C)cc2C)cc1 | i
CCOC(=O)Cn1c(-c2ccccc2)nc2ccccc2c1=O | i
CCC1C(=O)N=C(SCC(=O)Nc2cccc3ccccc23)NC1=O (configuration not stated) | i
Nc1ncnc2c1ncn2CCNCCc1ccccc1 | i
Cc1nc2c(c(C)nn2-c2ccccc2)c(C)c1CCC(=O)N1CCC2(CC1)OCCO2 | 1.5
Cn1c(N)c(C(=O)COC(=O)CCCc2c[nH]c3ccccc23)c(=O)n(C)c1=O | 0.6
CCOc1nc(C)ccc1-c1noc(-c2ccco2)n1 | 0.7
COc1ccc(N=Cc2c(O)[nH]c3ccccc23)cc1 | i
O=C(CSC1=NCCS1)N1CCCCCC1 | 1.3
Cc1cc(NCc2ccccc2)nc(-c2ccccc2O)n1 | i
Cc1ccc(N=Nc2c(O)n(CN3CCOCC3)c3ccccc23)cc1 | i
CN1CC2(Cc3c1ccc1ccccc31)C(=O)OC(C)(C)OC2=O | i
CS(=O)c1ccccc1COC(=O)Nc1cccc(Cl)c1 (configuration not stated) | i
Cn1cccc1-c1nc2ccc(NC(=O)c3ccc([N+](=O)[O-])cc3)cc2[nH]1 | i
c1ccc(CSc2nnc(Cc3ccccn3)o2)cc1 | 1.6
CCC(=O)Nc1ccc(S(=O)(=O)c2ccc(NC(=O)CC)cc2)cc1 | 0.3
Cc1ccccc1CSCC(=O)c1c(N)n(C)c(=O)n(C)c1=O | i
CCOC(=O)c1ccc(N2CSC3=C(C#N)C(c4ccc(OC)cc4OC)CC(=O)N3C2)cc1 (configuration not stated) | 2.3
CS(=O)(=O)N(CC(=O)Nc1cccnc1)c1ccc2c(c1)OCCO2 | 0.1
CCC(=O)N1CCN(c2ccc(Cl)cc2NC(=O)Cc2ccccc2)CC1 | i
CCOC(=O)C1=C(N)OC2=C(C(=O)CC(C)(C)C2)C1c1ccoc1 (configuration not stated) | i
Cc1ccnc2c(N3C(=O)C4C5C=CC(C5)C4C3=O)cccc12 (configuration not stated) | 0.0
COc1ccc(/C(C)=N\n2cnnc2)cc1 | i
C=C(C)C(=O)Nc1cccc(C(C)=O)c1 | i
O=S(=O)(c1cc(Cl)ccc1Br)N1CCCCC1 | 2.1
O=C(NC1CCCC1)C(c1c[nH]c2ccccc12)N(C(=O)Cn1nnc(-c2ccc(Cl)cc2)n1)c1ccccc1 (configuration not stated) | 5.7
CC(=O)N(c1ccccc1)C1SC(=O)N(c2ccccc2)C1=O (configuration not stated) | 0.3
Cc1ccc(C(O)CN2C3=NCCN3c3ccccc32)cc1 (configuration not stated) | 1.7
CCOC(=O)C1=C(C)NC2=C(C(=O)CCC2)C1c1coc2ccccc2c1=O (configuration not stated) | 0.3
CCCNC(=O)NC(C)C12CC3CC(CC(C3)C1)C2 (configuration not stated) | 1.1
Cn1c(C(=O)OC(C(=O)NC2CCCCC2)c2ccncc2)cc2sccc21 (configuration not stated) | i
O=C(CCCSc1nc2ccccc2[nH]1)N1CCN(c2ccccc2)CC1 | i
Following part
SMILES | H5N1 antiviral
Cc1ccc(SCc2nnc(NC(=O)c3ccccc3)s2)cc1 | 0.4
FC(F)(F)c1nc2ncc(Cl)cc2[nH]1 | i
Cn1c(NCc2ccccc2)nc2c1c(=O)n(Cc1ccc(Br)cc1)c(=O)n2C | i
COc1ccc(S(=O)(=O)NN=C2CCCCC2)cc1 | i
CC(C)Cn1c(CN(Cc2ccccc2)Cc2ccccc2)nc2c1c(=O)n(C)c(=O)n2C | i
Cc1ccc(-n2c(SCC(=O)OC(C)C)nnc2-c2cnccn2)cc1 | 0.9
C=CCn1c(C)cc(C(=O)CN2C(=O)c3ccccc3C2=O)c1C | i
CN1C(=O)NC(c2cccc(O)c2)C(C(=O)c2cccs2)C1(O)C(F)(F)F (configuration not stated) | i
COc1ccc(-n2c(COc3ccc4ccccc4c3)nnc2SCC(=O)NCc2ccco2)cc1 | i
O=C(O)c1ccc2oc(SCC(=O)N3CCCCC3)nc2c1 | 1.0
CCOc1ccccc1NC(=O)C1CCN(c2ccc(S(=O)(=O)N3CCCC3)cc2)CC1 | 0.5
COc1ccc(CCCC(=O)NC2CCCCC2)cc1 | 1.2
FC(F)(F)c1cccc(Oc2cc(C(F)(F)F)nc(-c3ccccn3)n2)c1 | 0.8
O=C(O)C1CC(=O)N(Cc2ccccc2)C1 (configuration not stated) | 0.5
O=C(Nc1nncs1)C1COc2ccccc2O1 (configuration not stated) | i
CN(C(=O)c1ccncc1)C1CCS(=O)(=O)C1 (configuration not stated) | i
Cc1ccc(N(CC(O)Cn2c3ccccc3c3ccccc32)S(C)(=O)=O)cc1 (configuration not stated) | i
CN(C)S(=O)(=O)c1ccc(-c2csnn2)s1 | 1.9
O=C(OCCN1CCOCC1)c1cccnc1 | 1.0&0.0
CCOc1ccc(N2C(=O)C3C4C=CC(CC4)C3C2=O)c([N+](=O)[O-])c1 (configuration not stated) | i
CCSc1nnc(Cc2cc(=O)[nH]c(=O)[nH]2)n1-c1ccc(F)cc1 | 0.5
O=c1oc(-c2ccccc2)nc2ccsc12 | 0.4
Nc1cc(N)nc(SCC(=O)Nc2ccc3c(c2)OCCCO3)n1 | i
O=C1c2oc3ccccc3c(=O)c2C(c2cccc(Br)c2)N1Cc1ccco1 (configuration not stated) | i
Nc1nnc(CC(=O)NCc2ccccc2)s1 | 0.2
COc1ccccc1NC(=O)C(=O)N1N=C(C(C)C)CC1(O)C(F)(F)F (configuration not stated) | i
COCCn1c(SCC(=O)NCCc2ccccc2)nnc1-c1ccco1 | i
N=c1c2c(-c3ccccc3)c(-c3ccccc3)n(Cc3ccco3)c2ncn1Cc1ccco1 | i
O=C(CN1CCOCC1)NC1C2CC3CC(C2)CC1C3 (configuration not stated) | 1.1
CCn1nnnc1SCC(=O)NNC(=O)C1CCCCC1 | 0.7
Cc1ccc(NC(=O)c2ccc(CSc3ncnc4nc[nH]c34)cc2)c(C)c1 | i

Screening results as filed in PubChem BioAssay.
